Mtb H37Rv: Mycobacterium tuberculosis H37Rv growth inhibition, putative kinase inhibitor library, confirmatory dose response (AID 2842); M. tuberculosis H37Rv growth inhibition; higher % means a stronger effect; some inactives read as strong as hits; inhibition, % at 10 µg/mL; hits with a dose series show IC90 in µg/mL; actives 5.2% (n = 24,000);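 active = confirmed in a dose series; inconclusive = mostly over 85% at the one dose but not retested; inactive = below 85% or not confirmed; about a fifth of its hits are not listed in these tables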;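 note: bacteria incubated one week before Alamar blue readout; 0% = bacteria only wells and 100% = bacteria with high antibiotic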
* marks the source's active call; other numbers are inactive results; ? = inconclusive. Some of the compounds tested, so the mix of outcomes need not match the whole.

compound	Mtb H37Rv
COc1ccc(-c2nnc3c4cc5c(cc4n(Cc4ccc(C)cc4)cc2-3)OCCO5)cc1	5.09µg/mL*
CCOc1ccc(NC(=O)c2oc3ccccc3c2NC(=O)c2ccc(Br)cc2)cc1	6.4%
Cc1ccc(-c2nnc3ccc(SCC(=O)Nc4cc(C)cc(C)c4)nn23)cc1	-0.3%
CCOC(=O)c1nn(-c2ccc(C(F)(F)F)cc2)c(=O)c2c(NC(=O)c3ccc(OC)c(OC)c3)scc12	9.2%
Cc1nc2c(ccc3nc(NC(=O)Cc4cccc5ccccc45)sc32)s1	?
Cc1ccc(CS(=O)(=O)c2cn(CC(=O)Nc3ccc4c(c3)OCO4)c3ccccc23)cc1	-1.8%
Cc1cc2cc(CCNC(=O)CC3CCCCC3)c(=O)[nH]c2cc1C	-1.3%
O=c1ccn(-c2nc(-c3ccccc3)sc2-c2ccccc2)c(=O)[nH]1	-0.9%
O=C(CN1C(=O)S/C(=C\c2ccccc2Cl)C1=O)Nc1ccc(C(=O)O)cc1	-15.2%
O=C(CC1NCCNC1=O)OCCCc1ccccc1 (stereo unspecified)	7.3%
CN1C(=O)c2cccc(NC(=O)c3ccc4c(c3)CCCC4)c2C1=O	-10.7%
CCC(Sc1ccccc1)C(=O)Nc1nnc(-c2ccccc2)s1 (stereo unspecified)	6.2%
COC(=O)C1=C(N)Oc2cc(C)n(Cc3ccccc3)c(=O)c2C12C(=O)Nc1ccccc12 (stereo unspecified)	-20.6%
CCCCSc1nc2c(c(=O)[nH]c(=O)n2C)n1CCCC	19.2%
COC(=O)C1=C(NC(=O)c2cc3ccccc3oc2=O)CCS1	63.5%
COc1cccc(-c2nnc(Nc3nc4ccc(OC)cc4s3)o2)c1	7.0%
COCCSc1nc(N)c(NC(=O)c2ccc(OC)cc2)c(=O)[nH]1	5.8%
COc1ccc(NC(=S)NCCc2cc3ccc(C)cc3[nH]c2=O)cc1OC	4.0%
COc1ccc(/C=N/Nc2nc3c(c(=O)n(C)c(=O)n3C)n2CC(O)COC(C)C)cc1 (stereo unspecified)	-0.1%
O=C(Nc1nnc(-c2ccco2)o1)c1cc(Cl)ccc1Cl	4.99µg/mL*
COc1cccc2cc(-c3cc(=O)oc4cc(OCC(C)=O)ccc34)c(=O)oc12	-9.8%
O=C(CSc1ccc2nnc(-c3cccc(F)c3)n2n1)Nc1nc2ccccc2s1	-0.2%
CC1(C)Cc2c(sc(NC(=O)c3ccccc3)c2C(N)=O)C(C)(C)N1	-3.0%
C#CCSc1nc2ccccc2n1C(=O)c1ccc(S(=O)(=O)N2CCOCC2)cc1	-13.6%
CCOC(=O)c1sc2nc(NC(=O)c3ccc(N(C)C)cc3)sc2c1C	10.6%
Cc1cccc(-c2nnn3c2nc(NCCc2ccc(S(N)(=O)=O)cc2)c2ccccc23)c1	-2.9%
Fc1ccc2nc(Nc3nc4ccccc4s3)sc2c1	63.3%
CCOC(=O)c1cnc2ccccc2c1Nc1cccc(C(=O)O)c1	1.5%
O=C1OC2C=CC=CC2C=C1c1cn2cc(Cc3cccc(C(F)(F)F)c3)sc2n1 (stereo unspecified)	44.1%
COC(=O)Cn1c(C)cn2c3c(=O)n(C)c(=O)n(C)c3nc12	-18.2%
Cc1cc(C)c(-c2csc(NC(=O)c3ccc(S(=O)(=O)N4CC(C)CC(C)C4)cc3)n2)c(C)c1 (stereo unspecified)	3.7%
Cc1ccc(-c2cc(C#N)c(NC(=O)c3cccs3)o2)cc1	-15.5%
Cc1cc(C)cc(NC(=O)CN2N=NC3C(=O)N(c4ccc(C(C)C)cc4)C(=O)C32)c1 (stereo unspecified)	-2.1%
Cc1cccc(C)c1NC(=O)NC1CC(=O)N(c2ccc3c(c2)OCCO3)C1 (stereo unspecified)	17.2%
Cc1ccccc1N1CC(C)Cn2c1nc1c2c(=O)n(CC(=O)O)c(=O)n1C (stereo unspecified)	-15.1%
O=c1[nH]cc(S(=O)(=O)Nc2ccc(F)cc2)c(=O)[nH]1	-4.1%
COc1ccc2sc(Nc3nc4ccc(Br)cc4s3)nc2c1	68.3%
CCc1nc2sc(C(c3ccco3)N3CCN(C)CC3)c(O)n2n1 (stereo unspecified)	1.9%
COc1cc2c3nnc(-c4ccc(Cl)cc4)c-3cn(Cc3ccccc3)c2cc1OC	20.8%
CCOc1ccc(-c2nc(C(N)=O)c3[nH]c(=O)n(-c4ccc(C(C)(C)C)cc4)c3n2)cc1	-4.2%
O=C(CSc1nnc(-c2ccncc2)o1)Nc1ccc(F)cc1	-0.5%
CCCCCCCSc1nc2c(c(=O)[nH]c(=O)n2C)n1CCOC	16.6%
C=CCSc1nc2c(c(=O)[nH]1)C(c1ccc(F)cc1)C1=C(CCCC1=O)N2 (stereo unspecified)	7.8%
CCOC(=O)COc1cccc2c(=O)n(CC(=O)N3CCCCC3)ccc12	-1.8%
O=C(Cc1ccccc1)NN1C(=O)/C(=C/C=C/c2ccccc2)SC1=S	-10.6%
CN1CCCc2cc(C(CNC(=O)c3ccc4c(c3)OCO4)N3CCCCC3)ccc21 (stereo unspecified)	-1.4%
COc1ccc2nc(NC(=O)c3ccc(C#N)cc3)sc2c1	9.5%
CC1CCc2nc(Nc3nc4cc5c(cc4s3)OCO5)sc2C1 (stereo unspecified)	14.4µg/mL*
O=C(CSc1ccc2nnc(-c3cccnc3)n2n1)Nc1ccccc1F	0.8%
O=C(CCCCl)Nc1nnc(-c2cccc([N+](=O)[O-])c2)s1	17.4%
Cc1cccc(OCC(=O)Nc2c(C(=O)Nc3ccc(F)c(F)c3)oc3ccccc23)c1	-2.0%
COc1ccc(-n2nnc(-c3nc(-c4ccc5c(c4)OCO5)no3)c2N)cc1OC	-9.1%
COC(=O)c1cccc(Cn2nnc3sc4c(c3c2=O)CCC(C(C)(C)C)C4)c1 (stereo unspecified)	-2.0%
Cc1cc(Br)ccc1NC(=O)c1cnc2scc(C)n2c1=O	-9.6%
CCOc1ccc(NC(=O)CC2Nc3cccc4cccc(c34)NC2=O)cc1 (stereo unspecified)	?
O=C(Nc1cccc(-c2ccc3nncn3n2)c1)c1cc(Cl)ccc1Cl	24.6%
O=C(Nc1ncc(S(=O)(=O)c2ccc([N+](=O)[O-])cc2)s1)c1ccc(-c2ccccc2)cc1	-2.1%
CCc1ccc(NC(=O)c2oc3ccccc3c2NC(=O)c2ccco2)cc1	-3.4%
Cc1ccc(S(=O)(=O)N(CC(C)C)C2CCS(=O)(=O)C2)cc1 (stereo unspecified)	-1.8%
Nc1nc(SCC(=O)Nc2nc3ccccc3s2)[nH]c(=O)c1NC(=O)c1ccc(Cl)cc1	0.9%

The list continues.
Compound | Mtb H37Rv
CCOC(=O)c1nn(-c2ccc(F)cc2)c(=O)c2c(NC(=O)c3cc(C)cc(C)c3)scc12 | 1.8%
COCCCNc1oc(-c2ccc([N+](=O)[O-])cc2)nc1C#N | 3.4%
Cn1c(=O)cc2c3c(c(Nc4ccccc4)ccc31)C(=O)c1ccccc1-2 | -4.9%
CC(=O)c1ccc(NC(=O)CSc2nnc(CNC(=O)c3cccc([N+](=O)[O-])c3C)o2)cc1 | -1.6%
Cc1ccc(NC(=O)c2c(C(=O)Nc3ccc(F)cc3)sc3nc(=O)c(C)nn23)cc1 | -6.4%
Clc1cccc2sc(N3CCCC3)nc12 | 6.3%
CCOC(=O)N1CCc2c(sc(NC(=O)CCSc3ccccc3)c2C(N)=O)C1 | 8.5µg/mL*
COc1cccc(NC(=O)CSc2nnc(Cc3ccc(Cl)cc3)c(=O)[nH]2)c1 | -4.3%
CC(C)C(=O)Nc1ccc(S(=O)(=O)Nc2nccs2)cc1 | -8.4%
CC(=O)c1cccc(NC(=O)CSc2nnc(Cc3ccc(Cl)cc3)n2-n2cccc2)c1 | -3.2%
COc1ccc(-c2nnc3ccc(SCC(=O)Nc4cccc(Cl)c4)nn23)cc1OC | -3.3%
CC(=O)c1cc(C(=O)OCC(=O)Nc2cc(C)cc(C)c2)c2ccccn12 | -5.3%
O=C(Nc1c(C(=O)Nc2ccc(OC(F)(F)F)cc2)oc2ccccc12)c1ccc(Br)o1 | -3.5%
O=C(Cn1cnc2c(cnn2-c2cccc(Cl)c2)c1=O)OCc1ccccc1 | 33.2%
Cc1cc(=O)[nH]c2nnc(SCC(=O)N3CC(C)OC(C)C3)n12 (stereo unspecified) | -2.3%

At a glance, part of the list above:
Compound | Mtb H37Rv
CCOC(=O)c1nn(-c2ccc(F)cc2)c(=O)c2c(NC(=O)c3cc(C)cc(C)c3)scc12 | 1.8%
COCCCNc1oc(-c2ccc([N+](=O)[O-])cc2)nc1C#N | 3.4%
Cn1c(=O)cc2c3c(c(Nc4ccccc4)ccc31)C(=O)c1ccccc1-2 | -4.9%

(further entries)
Compound | Mtb H37Rv
CCS(=O)(=O)c1ccccc1C(=O)N1CCN(c2nc3ccc([N+](=O)[O-])cc3s2)CC1 | 1.1%
COc1ccc(NC(=O)CSc2nnc3[nH]c(=O)c(C)c(C)n23)c(OC)c1 | -14.1%
CC(C)CCn1c(N2CCN(Cc3c(Cl)cccc3Cl)CC2)nc2c1c(=O)[nH]c(=O)n2C | 9.0%
Cn1c(=O)[nH]c(=O)c2c1nc(N1CCCCC1)n2CCSc1nc2ccccc2[nH]1 | 3.5%
Cn1c(=O)c2c(SCC(=O)N3CCc4ccccc43)nc(-c3ccco3)nc2n(C)c1=O | 1.9%
CC(=O)Nc1ccc(NC(=O)c2ccc(-c3ccccc3C(F)(F)F)o2)cc1 | 1.4%
Cc1cc(F)ccc1S(=O)(=O)Nc1cc2c3c(c1)CCN3C(=O)CC2 | -1.7%
COc1ccc(OC)c2[nH]c(=O)c(CCNC(=O)CC3CCCCC3)cc12 | 7.4%
CN(C)c1ccc(/C=N\Nc2cn[nH]c(=O)c2Br)cc1 | 11.3%
CC1CC(C)CN(S(=O)(=O)c2ccc(C(=O)Nc3nc4c(ccc5ccccc54)s3)cc2)C1 (stereo unspecified) | -0.8%
CCOc1ccc(-c2nc(C(N)=O)c3[nH]c(=O)n(-c4ccc(C)c(C)c4)c3n2)cc1OC | -10.8%
CN(Cc1ccccc1)c1nc2c(c(=O)n(C)c(=O)n2C)n1CCSc1ncccn1 | 10.6%
O=C(CCN1C(=O)/C(=C\c2ccco2)SC1=S)Nc1cc([N+](=O)[O-])ccc1O | -7.0%
CCC(CO)Nc1ncnc2c1cnn2-c1ccc(Cl)c(Cl)c1 (stereo unspecified) | 14.2µg/mL*
COc1cccc(NC(=O)Cn2cnc3c(cnn3-c3cccc(Cl)c3)c2=O)c1 | 2.4%

Among those listed so far, three have a cyano group.
Compound | Mtb H37Rv
Cc1ccc(-c2cc(C#N)c(NC(=O)c3cccs3)o2)cc1 | -15.5%
COc1ccc2nc(NC(=O)c3ccc(C#N)cc3)sc2c1 | 9.5%
COCCCNc1oc(-c2ccc([N+](=O)[O-])cc2)nc1C#N | 3.4%

The listing continues.
Compound | Mtb H37Rv
Cc1cccc(NC(=O)CC2Nc3ccccc3NC2=O)c1C (stereo unspecified) | 8.2%
O=C(Nc1nnc(-c2ccc(Br)cc2)o1)c1ccc(Br)cc1 | 80.1%
COc1ccc(CC(=O)NCCc2cc3ccc(C)cc3[nH]c2=O)cc1OC | 11.1%
CCN1C(=O)/C(=C2/SC(=S)N(CCC(=O)O)C2=O)c2ccccc21 | 2.6%
C=CCn1c(Sc2nncn2C)nc2c1c(=O)[nH]c(=O)n2C | -8.2%
COc1cccc(CNc2nccn(-c3cc(C)c(Cl)cc3OC)c2=O)c1 | -7.5%
Cc1cc(C)cc(C(=O)NCCn2cc(SCC(=O)Nc3nnc(C)s3)c3ccccc32)c1 | 12.6%
CCOC(=O)c1sc(Nc2nc3ccc(F)cc3s2)nc1C | 52.6%
CC(=O)c1sc(NC(=O)c2ccc(Oc3ccccc3)cc2)nc1-c1ccccc1 | 10.2%
O=C(Nc1ccc(Cl)c(Cl)c1)NC1CC(=O)N(c2cccc(F)c2)C1 (stereo unspecified) | 6.41µg/mL*
COc1ccc(C(=O)NCCc2cc3c(C)ccc(C)c3[nH]c2=O)cc1 | -0.5%
Cc1ccc(N2C(=O)C(Cc3ccc(Cl)c(Cl)c3)S/C2=C(/C#N)C(=O)NCCc2ccccc2)cc1 (stereo unspecified) | -6.8%
Cc1nc2ccc(NC(=O)c3ccc(S(=O)(=O)N4CCCc5ccccc54)cc3)cc2s1 | 27.1%
C#CCn1c(=NC(=O)c2cccc(F)c2)sc2cc(NC(C)=O)ccc21 | -3.4%
O=C(NCCN1CCOCC1)Nc1ccc(Cl)c(Cl)c1 | 2.4%
c1ccc2sc(Nc3nc4cc5c(cc4s3)OCO5)nc2c1 | 18.6µg/mL*
Cc1ccc(Cn2nnc(C(=O)NCc3ccc4c(c3)OCO4)c2N)cc1 | -6.4%
O=C(Nc1ccc(N2CCCCS2(=O)=O)cc1)c1ccc([N+](=O)[O-])cc1Cl | 8.3%
Cc1ccc2cc(CCNC(=O)C3c4ccccc4Oc4ccccc43)c(=O)[nH]c2c1C | -3.6%
COc1ccc(S(=O)(=O)CC(=O)Nc2nnc(-c3cc(C)ccc3C)o2)cc1 | 84.8%
COc1cccc(C(=O)NCC(=O)N/N=C/c2ccc(Cl)cc2)c1 | -7.1%
Nc1nc(SCC(=O)NCc2ccccc2)[nH]c(=O)c1NC(=O)c1ccccc1F | -8.7%
Cc1ccc(NC(=O)CSc2ccc3nnc(-c4cccs4)n3n2)c(C)c1 | -14.2%
CCOc1ccc(NC(=O)/N=c2/sc3cc(C)cc(C)c3n2C)cc1 | 0.0%
Cc1ccc(C)c(NC(=S)NCCc2cc3c(C)ccc(C)c3[nH]c2=O)c1 | 6.3%
C/C(=N\N)c1c(-c2ccccc2)c2cc(C)ccc2[nH]c1=O | -4.3%
CC(=O)c1c(-c2ccccc2)c2cc([N+](=O)[O-])ccc2[nH]c1=O | 2.3%
Cc1nnc(NC(=O)COc2ccc3ccccc3c2)s1 | 0.2%

From PubChem BioAssay
